Screening results deposited in PubChem BioAssay by National Center for Advancing Translational Sciences (NCATS).
D2 agonist: Beta-Arrestin HTS for Positive Allosteric Modulators of the Human D2 Dopamine Receptor: Agonists | 360,000 compounds, 0.084% hits | DiscoveRx PathHunter D2 beta-arrestin, luminescence, 90 min; 100% = 57 uM dopamine signal | activation, % (test concentration not listed) | D(2) dopamine receptor (Homo sapiens), P14416; in the data active = activation above about 40%; inconclusive = about 15% to 40%; inactive = below about 15%; note: compound concentration not given in the record; the text of the record calls up to 30% inactive
Target sequence (P14416 whole entry, looked up): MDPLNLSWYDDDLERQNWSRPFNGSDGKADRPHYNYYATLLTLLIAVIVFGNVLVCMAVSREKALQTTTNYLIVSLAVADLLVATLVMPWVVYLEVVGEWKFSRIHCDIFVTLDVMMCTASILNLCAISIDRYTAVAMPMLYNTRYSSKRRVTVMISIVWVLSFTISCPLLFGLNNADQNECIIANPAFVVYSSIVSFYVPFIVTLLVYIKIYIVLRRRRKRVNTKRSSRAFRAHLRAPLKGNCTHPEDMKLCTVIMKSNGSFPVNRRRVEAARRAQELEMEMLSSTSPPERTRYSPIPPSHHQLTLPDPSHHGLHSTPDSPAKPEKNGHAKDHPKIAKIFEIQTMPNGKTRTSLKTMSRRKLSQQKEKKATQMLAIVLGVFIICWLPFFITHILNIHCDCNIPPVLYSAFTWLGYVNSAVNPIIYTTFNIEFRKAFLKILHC
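Agonist mode: compounds alone added to overnight-plated D2 PathHunter cells for 90 min at 37 C, with 57 uM final dopamine (EC100) defining full response. Beta-arrestin recruitment detected by chemiluminescent reagent, read after 1 h at ambient temperature.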
D2 PAM: Beta-Arrestin HTS for Positive Allosteric Modulators of the Human D2 Dopamine Receptor: Potentiators; D(2) dopamine receptor (Homo sapiens), P14416; potentiation, % (test concentration not listed); AID 624464, 2012; DiscoveRx D2 beta-arrestin cells, luminescence, 90 min; 100% = 57 uM dopamine signal; 360,000 compounds, 0.23% hits; active = potentiation of 50% or more; inconclusive = 30% to 50%; inactive = 30% or less;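 note: compound concentration not given in the record; tested on top of an EC20 dose of dopamine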
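PathHunter D2 cells, attached overnight at 37 deg C, received compound in DMSO plus dopamine at EC20 (50 nM final) for 90 min at 37 deg C. Beta-arrestin recruitment was read as luminescence after 1 h with detection reagent at ambient temperature.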
PINK1 expr mod: A Quantitative High throughput Screen to Identify Chemical Modulators of PINK1 Expression; Potency, µM (top dose mostly 76.6 µM), for inactives: top-dose activation (PINK1 increase), usual class: activators; PINK1 immunofluorescence, high-content cytometry, 24 h; AID 624263, 2012; 410,000 compounds, 0.2% hits; active = well fitted activation curve with a large enough effect; inconclusive = small, poorly fitted or top-dose-only effect; inactive = flat fitted curve, though single readings scatter; cell line not stated here;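 note: potency is the fitted concentration of half-maximal effect; % of control where 0% means no effect; nearly all actives have a fitted effect of over 65% in size; a mitochondrial uncoupler was the plate control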
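PINK1 protein, normally rapidly degraded, was detected by immunofluorescence after 24 hour compound treatment of a stable cell line. Titration data (5 concentrations) came from laser-scanning cytometry, with CCCP-treated wells as controls.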
Six1-Eya2 inh: qHTS Assay for Inhibitors of the Six1/Eya2 Interaction. AlphaScreen GST-Six1/His-Eya2 binding, biochemical; hits give low values; control for the full effect not named in the record. activity change, % (concentration not given with the values). Homeobox protein SIX1 (Homo sapiens) + Protein phosphatase EYA2 (Homo sapiens), …. 360,000 compounds, 0.56% hits. AID 651725, 2012; in the data active = activity change below about -65%; inconclusive = about -30% to -65%; inactive = above about -30%; note: % is set by controls: 0 for no effect and ±100 for the full control effect
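AlphaScreen luminescence read after one hour at 37 °C in darkness. Pin-transferred compounds met GST-Six1 and His-Eya2 protein (5X stock 250 nM/500 nM) plus glutathione donor and Ni-chelate acceptor beads (5X, 50 ug/mL).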
TRPML1 blocker: qHTS for Inhibitors of the Human Mucolipin Transient Receptor Potential 1 (TRPML1). TRPML1-inducible cells, Ca2+ dye fluorescence, FDSS; hits give low values; inhibition of EC80 agonist-evoked calcium signal. Mucolipin-1 (Homo sapiens), Q9GZU1. AID 624415, 2012. activity change, negative = inhibition, % (no concentration beside the values). 390,000 compounds, 0.02% hits; in the data active means activity change below about -50%; inconclusive means about -30% to -50%; inactive means above about -30%;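 note: stimulus is agonist 54-4 at its EC80 concentration; % is set by controls: 0 for no effect and ±100 for the full control effect; compound concentration not given in the record; the text of the record puts the active cut at -80%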
Target sequence (Q9GZU1 whole entry, looked up): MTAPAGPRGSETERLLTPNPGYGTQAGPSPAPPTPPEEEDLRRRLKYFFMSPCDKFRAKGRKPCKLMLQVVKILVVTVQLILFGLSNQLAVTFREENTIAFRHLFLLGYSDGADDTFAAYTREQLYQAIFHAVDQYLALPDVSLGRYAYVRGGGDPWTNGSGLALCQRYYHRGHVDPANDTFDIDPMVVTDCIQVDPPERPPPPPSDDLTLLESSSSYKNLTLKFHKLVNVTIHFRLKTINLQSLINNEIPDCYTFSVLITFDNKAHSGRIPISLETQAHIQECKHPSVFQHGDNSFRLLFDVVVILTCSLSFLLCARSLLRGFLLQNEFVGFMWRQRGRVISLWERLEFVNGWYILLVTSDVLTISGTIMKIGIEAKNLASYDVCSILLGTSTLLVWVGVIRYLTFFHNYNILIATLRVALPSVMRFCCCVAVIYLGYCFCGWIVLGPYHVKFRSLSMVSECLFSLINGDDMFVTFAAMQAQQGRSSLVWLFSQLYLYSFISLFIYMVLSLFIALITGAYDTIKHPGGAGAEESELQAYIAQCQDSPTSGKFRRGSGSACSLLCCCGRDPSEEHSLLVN
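Calcium fluorescence in TRPML1-DL cells induced overnight with Tet: a 110 s read after compound pin addition, then a 110 s antagonist read after challenge with 54-4 at 4 uM final (EC80).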
TRPML1 agonist: qHTS for Agonists of the Human Mucolipin Transient Receptor Potential 1 (TRPML1) | Mucolipin-1 (Homo sapiens), Q9GZU1 | TRPML1-expressing cells, Ca2+ dye fluorescence, FDSS; host cell line not named in the record; reference of the full effect not given here | activation, % (concentration not given with the values) | 410,000 compounds, 0.12% hits | AID 624414, 2012; in the data active = activation above about 50%; inconclusive = about 30% to 50%; inactive = below about 30%; note: 0% is about no effect; the text of the record puts the active cut at 80%
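Tetracycline-induced TRPML1-DL cells are seeded and incubated overnight before loading with a no-wash Ca2+ dye and quencher. Agonist activity is taken from the 110 s fluorescence read following compound pin-transfer on an FDSS, before EC80 54-4 challenge.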
Numbers without * were called inactive; ? = inconclusive; . = no result given; [ ] = dose if it differs, or a comment.

SMILES	D2 agonist	D2 PAM	PINK1 expr mod	Six1-Eya2 inh	TRPML1 blocker	TRPML1 agonist
COc1cccc(Nc2nc(N)c([N+](=O)[O-])c(N3CCOCC3)n2)c1	-1.1	-10	1.6%	-9	14	2.1
O=C(O)/C=C/C(=O)Nc1ccccc1-c1ccccc1	-0.1	-2	-2.3%	10	-12	-0.2
Fc1ccccc1Cc1cn2cc(-c3ccc(Cl)cc3)nc2s1	.	.	9.8%	.	-5	-0.2
CCOC(=O)/C(C)=N/Nc1nc(-c2ccc(NC(C)=O)cc2)cs1	-4.0	4	4.7%	-11	17	0.0
CCOC(=O)c1cc(C)n(CCc2ccccc2)c1C	-5.6	-27	-1.5%	-11	-12	3.5
C#CCOCCOCCOCCNc1nc(N2CCN(C(=O)[C@H]([C@@H](C)CC)n3cc(CCCN=C(N)N)nn3)CC2)nc(N2CCN(C(=O)[C@H]([C@@H](C)CC)n3cc(CCC(=O)O)nn3)CC2)n1	-0.2	-3	-1.6%	-1	6	1.8
C/C(=N\NC(=O)c1c(Cl)c(C)nn1C)c1ccc(NC(=O)c2ccncc2)cc1	0.4	-8	7.3%	5	23	1.6
COc1ccc(NC(=O)C2(c3ccc(NC(=O)c4ccc(C)cc4)cc3)CCCC2)cc1	0.4	8	2.4%[38.3 µM]	7	0	2.6
CC(C)[C@@H]1NC(=O)c2cc([N+](=O)[O-])cc(I)c2NCCC[C@@H](C(=O)NC(CC(=O)O)C(N)=O)NC(=O)[C@H](CO)NC1=O (some centres not stated)	-0.6	-6	0.7%	4	-16	-0.3
COc1cc(NS(=O)(=O)c2ccc(Nc3nc(-c4ccccn4)cs3)cc2)nc(OC)n1	-6.0	-10	-0.8%	-79*	2	0.7
C=CCNC(=O)C(=O)NCCCN1CCOCC1	-3.5	-6	1.1%	7	-1	0.0
Cc1cccc(OC(=O)c2ccc3c(=O)n4c(nc3c2)CCC4)c1	2.0	-14	0.4%	6	5	-0.8
CCOC(=S)SCc1cn2ccc(C)cc2n1	-10	-34	-3.9%	-16	15	0.0
COC(=O)c1ccc(NC(=O)C(=O)N2CCCC2)cc1	4.6	8	-1.0%	5	44	1.2
Cc1ccc(-c2cnc(C(O)c3ccc(Cl)cc3C)[nH]2)cc1 (configuration not stated)	2.2	-17	4.8%	-14	.	-1.0

Single records (already shown):
COc1ccc(NC(=O)C2(c3ccc(NC(=O)c4ccc(C)cc4)cc3)CCCC2)cc1 across the screens: D2 agonist = 0.4; D2 PAM = 8; PINK1 expr mod = 2.4%[38.3 µM]; Six1-Eya2 inh = 7; TRPML1 blocker = 0; TRPML1 agonist = 2.6
CCOC(=S)SCc1cn2ccc(C)cc2n1 across the screens: D2 agonist = -10; D2 PAM = -34; PINK1 expr mod = -3.9%; Six1-Eya2 inh = -16; TRPML1 blocker = 15; TRPML1 agonist = 0.0
Cc1ccc(-c2cnc(C(O)c3ccc(Cl)cc3C)[nH]2)cc1 (configuration not stated) across the screens: D2 agonist = 2.2; D2 PAM = -17; PINK1 expr mod = 4.8%; Six1-Eya2 inh = -14; TRPML1 blocker = .; TRPML1 agonist = -1.0

Later entries
SMILES	D2 agonist	D2 PAM	PINK1 expr mod	Six1-Eya2 inh	TRPML1 blocker	TRPML1 agonist
COC(=O)c1ccc(NS(=O)(=O)c2ccc(OC)cc2)cc1	1.8	0	-4.2%[38.3 µM]	0	6	1.3
Cc1ccc2oc(-c3cccc(NC(=O)Cc4cccs4)c3)nc2c1	1.7	-2	28%[38.3 µM]	0	2	1.3
CC(CCc1ccccc1)N1CCN(C)CC1 (configuration not stated)	-1.7	-11	0.8%	1	11	0.8
Cc1cccc(Cn2c(SCc3ccc(C(=O)NC4CCCC4)cc3)nc3ccncc32)c1	.	.	0.8%	.	43	1.5
COc1ccc([C@@H]2[C@@H](C(=O)C(C)(C)C)N3N=Cc4ccccc4[C@@H]3C23C(=O)OC(C)(C)OC3=O)cc1OC	-1.3	-3	1.2%	-1	-7	0.4
O=C(CSc1oc(-c2ccccc2)nc1S(=O)(=O)c1ccc(Br)cc1)NC1CCCCC1	.	.	-1.6%	.	-19	0.5
COc1ccc(CN(C2CCCC2)S(=O)(=O)c2ccc(-n3cnnn3)cc2)cc1OC	-1.4	-2	-1.1%	-4	15	-0.1
FC(F)(F)c1ccc(Sc2nnc(-c3cccs3)n2CC2CCCO2)nc1 (configuration not stated)	-3.8	-2	1.4%	-1	-3	-0.9
Cc1ccc(-c2nc(CCNC(=O)C(=O)Nc3ccc(C)c(C)c3)cs2)cc1	.	.	-0.4%	.	-13	2.0
OC[C@@H]1CN(Cc2ccc(Cl)cc2)C[C@H](n2cnc3c(N4CCN(c5ccccc5)CC4)ncnc32)O1	2.4	2	-0.3%	-25	.	-0.5
CC(C)NC(=O)CSc1nc(-c2cccs2)cc(-c2ccccc2)c1C#N	-2.4	-12	21%[38.3 µM]	3	-2	0.1
O=C(NC1CC1)c1sccc1-n1cccc1	-0.1	8	-1.7%	-3	-5	-0.6
CCOC(=O)C1=C(COC(=O)CCOc2cccc(C)c2)NC(=O)NC1C (configuration not stated)	4.3	10	-0.5%	8	42	0.4
O=C(Nc1cccc(S(=O)(=O)N2CCOCC2)c1)c1cccc(S(=O)(=O)N2CCCCC2)c1	1.3	1	2.8%	-2	-17	-0.3
O=C(Nc1nnc(SCc2ccccc2)s1)c1cccc([N+](=O)[O-])c1	1.0	-13	1.5%	5	9	2.4
COCCCNC(=S)N(CCCO)Cc1cc2cc3c(cc2[nH]c1=O)OCCO3	3.9	10	1.2%	2	-2	-1.0
FC(F)(F)c1ccc(-c2n[nH]c(=S)o2)nc1	-0.7	-6	0.4%	-8	25	12
COc1cccc(/C=C/C(=O)OCC(=O)c2ccc(Br)cc2)c1	-1.4	-4	3.6%	7	3	1.1
CCN(CC)S(=O)(=O)c1ccc(O)c(NC(=O)c2cc(-c3cc(OC)c(OC)c(OC)c3)nc3ccccc23)c1	13	13	13%	1	11	1.2
CCCC1CCC(C(=O)Nn2cnc3ccccc3c2=O)CC1 (configuration not stated)	4.0	-14	0.0%[38.3 µM]	0	0	0.5
COc1ccccc1NC(=O)c1cc(S(=O)(=O)NCc2ccccc2)ccc1F	3.6	-2	7.2%	-2	-8	0.3
CCCN(C(=O)c1ccccc1Cc1ccccc1)C1CCS(=O)(=O)C1 (configuration not stated)	-0.9	-7	-0.9%	1	-10	-0.7
CSCCC1NC(=O)N(CC(=O)Nc2c(Cl)cc(Cl)cc2Cl)C1=O (configuration not stated)	-2.0	-1	-0.7%	15	5	-0.5
Cc1oc2c(cc(NS(=O)(=O)c3ccc(C(C)C)cc3)c3ccccc32)c1C(=O)OCc1ccccc1	.	.	-0.4%	.	-3	1.6
C=CCNC1=C(Cl)C(=O)N(c2cccc(Cl)c2Cl)C1=O	4.4	-11	-0.6%	16	7	1.3
CCOC(=O)c1ccc(N2CCN(c3cc(C)ccc3C)CC2)c(N)c1	4.8	-2	2.1%	-8	3	-0.2
O=C(NCCCCc1ccccc1)NC[C@@H]1CC[C@@H](Cc2ccc(-c3ccccc3)cc2)O1	-1.6	-14	-0.5%	1	1	-0.6
CC1=Nc2cc(C(=O)NC3CCCC3)ccc2Sc2ccc(Cl)cc21	.	.	12%	.	8	0.7
CCOc1ccc(/C=C/C(=O)NC2CCCCC2)cc1	9.3	-6	1.2%	-2	-8	0.4
O=C1c2ccsc2SCCN1Cc1cccc(F)c1	1.0	-7	0.0%	-4	5	-1.3
Cc1nc(-c2ccc(F)cc2)c(CC(=O)N(C)CC(=O)Nc2ccc(Cl)c(C(F)(F)F)c2)s1	5.5	-6	?	0	26	1.2
Nc1c(C(=O)NCc2cccnc2)sc(=S)n1-c1ccccc1	-0.5	-4	1.5%[38.3 µM]	-6	-15	-0.1
CC(=O)c1ccc(N2CCN(C(=O)c3nn(C)c4c3CS(=O)(=O)c3ccccc3-4)CC2)cc1	-1.7	10	0.9%	1	15	-0.9
O=C1N=C(N2CCCCC2)SC1=C1CCCCC1	-1.1	-7	-2.0%	-2	20	-0.6
O=C(N/N=C/C=C\c1ccccc1[N+](=O)[O-])c1cccs1	-1.0	-9	-2.1%	0	-1	3.3
O=c1c(C=NCCCO)c(-c2ccccc2)[nH]n1-c1nc2ccccc2s1	2.1	-10	-0.5%	-4	28	1.1
Cc1ccc(S(=O)(=O)N(C)CC(=O)N(C)CCOc2ccccc2)cc1	-0.1	-17	-0.7%	4	5	-0.8
CCn1nc(C)c(/C=N/NC(=O)Cc2ccc(Cl)cc2)c1C	-0.8	-3	-2.1%	0	55	-0.4
COc1ccc(Br)cc1C1CC(=O)C(C)C(c2cc(Br)ccc2OC)N1 (configuration not stated)	1.3	-6	0.8%	0	-12	0.0
Cc1oc(-c2cc3c(cc2Cl)OCO3)nc1CN1CCCC1c1ccc(F)cc1 (configuration not stated)	0.1	-13	2.5%	-5	45	0.4
O=Cc1ccc(OC2OCCOC2Oc2ccc(C=O)cc2)cc1 (configuration not stated)	-2.1	-4	-1.9%	-19	1	-0.2
N#CC1=C(N)Oc2ccccc2C12C(=O)Nc1n[nH]c(-c3ccccc3)c12 (configuration not stated)	8.1	22	12%	-8	0	-0.2
CC1CCN(c2nc3ccccc3nc2SCC(=O)Nc2ccccc2C(C)C)CC1	.	.	4.1%	.	3	0.4
Cc1ccccc1C(=O)OCc1cc(=O)n2c(C)csc2n1	.	.	-0.1%	.	2	1.0
CC(=O)Nc1ccc(S(=O)(=O)NCCC(=O)NCC2COc3ccccc3O2)cc1 (configuration not stated)	-4.7	-8	-1.0%	2	19	1.4
COc1cc(/C=N/n2c(-c3ccccc3)n[nH]c2=S)ccc1O	-3.0	-5	-0.3%	0	-7	-0.1
COc1cc(NC(=O)c2onc(C)c2Cl)cc(OC)c1OC	2.2	-7	0.9%	37	.	.
COc1ccc(OC)c(NC(=O)Cn2cc(S(=O)(=O)c3ccccc3)c(=O)c3cc(C)ccc32)c1	.	.	0.9%	.	3	-0.9
COC(=O)CSc1nc(C)c2c(n1)CCCC2	-6.5	-3	3.2%	11	2	1.0
CCc1ccccc1NC(=O)CSc1ncc2c(n1)-c1cc(Cl)ccc1N(Cc1ccccc1)S2(=O)=O	.	.	0.1%	.	8	0.2

An excerpt from above in order of molecular weight, ascending:
SMILES	D2 agonist	D2 PAM	PINK1 expr mod	Six1-Eya2 inh	TRPML1 blocker	TRPML1 agonist
CC(=O)Nc1ccc(S(=O)(=O)NCCC(=O)NCC2COc3ccccc3O2)cc1 (configuration not stated)	-4.7	-8	-1.0%	2	19	1.4
COc1ccc(OC)c(NC(=O)Cn2cc(S(=O)(=O)c3ccccc3)c(=O)c3cc(C)ccc32)c1	.	.	0.9%	.	3	-0.9
CCc1ccccc1NC(=O)CSc1ncc2c(n1)-c1cc(Cl)ccc1N(Cc1ccccc1)S2(=O)=O	.	.	0.1%	.	8	0.2
